A1 inh: inducers of caspase activity in MEF A1-2A-BIM cells, primary screen, A1 inhibitor project, cell-based, CaspaseGlo luminescence; caspase-Glo luminescence, 3 h; percent of clofoctol signal, DMSO as zero; 0.51% of 21,000 active; caspase activation, % (no concentration beside the values);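 active = most replicate scores above 10, or exactly half above 10 with mean activity above 10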;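 also: effector caspase 3 and 7 activity cleaving a DEVD luciferin substrate; 50 nL library stock added to about 30 µL; numbers are from one replicate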
BJeLR viability: BJeLR cell viability loss, primary screen, luminescence, CellTiterGlo ATP; 0.64% of 30,000 active; AID 2275, 2010; BJeLR fibroblasts viability, 48 h; HRASV12, hTERT and SV40 LT/ST transformed; viability loss activity score, % (no concentration beside the values); in the data active = viability loss activity score above about 50%; about a fifth of its hits are not listed in these tables;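 also: higher score means fewer live cells and less ATP luminescence; stock transfer was 50 or 100 nL into about 30 µL; 0% = vehicle wells and 100% = a reference killing control; one replicate is shown; the record names a cut of 85%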
* marks the source's active call; other numbers are inactive results; · = no result given.

item	SMILES	A1 inh	BJeLR viability
1	COc1ccc(NC(=O)Nc2ccc3c(c2)C(=O)N([C@@H](C)CO)C[C@@H](C)[C@H](CN(C)Cc2ccccc2)O3)cc1	-0.5	-1.7
2	CC1=C(C)CC(C(=O)Nc2ccc(-n3cnnn3)c(C)c2)C(C(=O)O)C1 (stereo not drawn)	0.4	-2.5
3	CNC[C@H]1Oc2c(NS(=O)(=O)c3cn(C)cn3)cccc2C(=O)N([C@H](C)CO)C[C@@H]1C	·	-3.0
4	CCOC(=O)COc1ccc(=O)n(-c2ccccc2)n1	·	1.3
5	CC(C)=CCc1c(O)cc(O)c2c(=O)cc(-c3ccc(O)cc3)oc12	-0.4	-11
6	C[C@@H]1Cc2c(O)c(O)cc(O)c2C(=O)O1	0.3	-5.5
7	CC(=O)Nc1ccc(S(=O)(=O)Nc2ccc([N+](=O)[O-])cc2)cc1	0.1	-2.8
8	C[C@H](CO)N1C[C@H](C)[C@@H](CN(C)Cc2ccc(Oc3ccccc3)cc2)Oc2c(NC(=O)c3nc4ccccc4s3)cccc2C1=O	·	-1.6
9	Oc1ccc2ccccc2c1C=NCc1cccnc1	0.7	-9.7
10	C[C@H](CO)N1C[C@H](C)[C@H](CN(C)Cc2ccncc2)Oc2c(NC(=O)C3CCCCC3)cccc2C1=O	·	2.0
11	Cc1ccc(S(=O)(=O)N(C)C[C@H]2Oc3ccc(NC(=O)Nc4c(C)noc4C)cc3C(=O)N([C@@H](C)CO)C[C@H]2C)cc1	1.2	3.6
12	Cc1noc(C)c1S(=O)(=O)Nc1cccc2c1O[C@@H](CN(C)Cc1ccc(C(=O)O)cc1)[C@@H](C)CN([C@@H](C)CO)C2=O	·	-4.9
13	Cc1ccc(S(=O)(=O)N(C)C[C@@H]2Oc3ccc(NC(=O)CCN4CCOCC4)cc3C(=O)N([C@H](C)CO)C[C@H]2C)cc1	1.7	-0.4
14	Cc1cc(Nc2ccc(F)cc2)nc(SCc2c(Cl)cccc2Cl)n1	1.0	16
15	Cc1ccc2nc(NCCC(=O)O)nc(-c3ccccc3)c2c1	0.8	0.8
16	O=C(c1ccccc1)c1cc2ccccc2oc1=O	-0.7	0.7
17	C[C@@H]1CN([C@@H](C)CO)C(=O)c2cc(NC(=O)c3ccncc3)ccc2O[C@H]1CN(C)Cc1ccc2c(c1)OCO2	0.3	5.0
18	Nc1nnc(CSc2cccc3cccnc23)o1	·	-1.2
19	CNC(=O)CSc1c(-c2cccs2)[nH]c2ccccc12	0.7	-1.6
20	CCOC(=O)N1CCC(NC(=O)c2snnc2C)CC1	0.0	-3.1
21	COc1cc(Cl)c(C(F)(F)F)cc1NC(=O)c1c(OC)cccc1OC	0.6	-5.0
22	COc1ccc(CN(C)C[C@@H]2Oc3ccc(NC(=O)Nc4ccc5c(c4)OCO5)cc3C(=O)N([C@H](C)CO)C[C@@H]2C)cc1	-0.1	0.6
23	CC(C)NC(=O)Nc1ccc2c(c1)C(=O)N([C@H](C)CO)C[C@@H](C)[C@H](CN(C)Cc1ccc(Oc3ccccc3)cc1)O2	-0.4	-1.8
24	C[C@@H]1CN([C@H](C)CO)C(=O)c2cccc(NC(=O)Nc3cccc4ccccc34)c2O[C@@H]1CN(C)S(=O)(=O)c1ccc(F)cc1	·	3.2
25	COc1cccc(NC(=O)c2ccc(-c3cccc(Cl)c3C)o2)c1	-3.3	5.7
26	CC1CCCCN1C(=O)CCS(=O)(=O)c1cccc2nonc12 (stereo not drawn)	·	-6.0
27	Cc1oc2c(c1C(=O)NCc1ccccc1)C(=O)c1ccccc1C2=O	-0.9	18
28	C[C@@H]1CN([C@@H](C)CO)C(=O)c2cc(NC(=O)CCCCCC(=O)Nc3ccccc3N)ccc2O[C@@H]1CN(C)CC1CCCCC1	·	3.7
29	C[C@H]1CN([C@@H](C)CO)C(=O)c2cccc(NC(=O)c3cnccn3)c2O[C@H]1CN(C)Cc1ccc2c(c1)OCO2	·	-0.2
30	CC(=O)O[C@@H]1[C@@H](OC(C)=O)[C@H](C)O[C@@H](O[C@H]2[C@@H]3C=CO[C@@H](O[C@@H]4O[C@H](CO)[C@@H](O)[C@H](O)[C@H]4O)[C@@H]3[C@@]3(CO)O[C@@H]23)[C@@H]1OC(=O)/C=C/c1ccccc1	0.4	-0.5
31	Cc1cc2c(c(=O)n1CCN1CCOCC1)C(c1cccc(F)c1)C(C#N)=C(N)O2 (stereo not drawn)	0.3	0.6
32	C[C@@H]1CN([C@@H](C)CO)C(=O)c2cccc(NC(=O)Nc3ccc4c(c3)OCO4)c2O[C@H]1CN(C)S(=O)(=O)c1ccc(F)cc1	·	-12
33	C=C(C(=O)O)C1CCC2(C)CCC(O)C2(C(C)=O)C1 (stereo not drawn)	-0.5	-2.1
34	COc1c(OC2OC(CO)C(O)C(O)C2O)ccc(O)c1C(=O)OCc1ccccc1O[C@@H]1O[C@H](CO)[C@@H](O)[C@H](O)[C@H]1O (stereo partly drawn)	-0.3	-1.2
35	N#Cc1cnc2c(-c3ccccc3)c(COc3ccccc3)nn2c1N	0.5	3.0
36	COC(=O)CCn1cnc(-c2ccccc2)c1-c1ccccc1	-0.4	-6.5

Single values from the list.
BJeLR viability result of C[C@@H]1CN([C@@H](C)CO)C(=O)c2cc(NC(=O)CCCCCC(=O)Nc3ccccc3N)ccc2O[C@@H]1CN(C)CC1CCCCC1 = 3.7
BJeLR viability result of C[C@H]1CN([C@@H](C)CO)C(=O)c2cccc(NC(=O)c3cnccn3)c2O[C@H]1CN(C)Cc1ccc2c(c1)OCO2 = -0.2
BJeLR viability result of COc1cccc(NC(=O)c2ccc(-c3cccc(Cl)c3C)o2)c1 = 5.7
A1 inh result of Cc1oc2c(c1C(=O)NCc1ccccc1)C(=O)c1ccccc1C2=O = -0.9
BJeLR viability result of C[C@@H]1CN([C@@H](C)CO)C(=O)c2cccc(NC(=O)Nc3ccc4c(c3)OCO4)c2O[C@H]1CN(C)S(=O)(=O)c1ccc(F)cc1 = -12

The listing picks up with the 4 entries that preceded the break.
item	SMILES	A1 inh	BJeLR viability
33	C=C(C(=O)O)C1CCC2(C)CCC(O)C2(C(C)=O)C1 (stereo not drawn)	-0.5	-2.1
34	COc1c(OC2OC(CO)C(O)C(O)C2O)ccc(O)c1C(=O)OCc1ccccc1O[C@@H]1O[C@H](CO)[C@@H](O)[C@H](O)[C@H]1O (stereo partly drawn)	-0.3	-1.2
35	N#Cc1cnc2c(-c3ccccc3)c(COc3ccccc3)nn2c1N	0.5	3.0
36	COC(=O)CCn1cnc(-c2ccccc2)c1-c1ccccc1	-0.4	-6.5
37	C[C@H](CO)N1C[C@H](C)[C@H](CN(C)S(=O)(=O)c2cn(C)cn2)Oc2ccc(NS(C)(=O)=O)cc2C1=O	-0.1	1.6
38	CC(C)NS(=O)(=O)c1ccc(Cl)s1	·	-3.0
39	O=C(C1CCCO1)N1CCN(C/C=C/c2ccccc2)CC1 (stereo not drawn)	-0.1	-0.2
40	C[C@@H]1CN([C@@H](C)CO)C(=O)c2cc(NC(=O)Nc3ccc(F)cc3)ccc2O[C@@H]1CN(C)S(=O)(=O)c1cccs1	4.0	6.3
41	Cc1oc(-c2ccccc2)nc1CSc1nncn2c1cc1occc12	-0.2	-2.0
42	O=C1OC2(CCCC2)OC(=O)C1=Cc1c[nH]c2ccccc12	0.3	-0.3
43	C[C@@H]1CN([C@@H](C)CO)C(=O)c2cc(NS(=O)(=O)c3cccs3)ccc2O[C@H]1CN(C)Cc1ccc2c(c1)OCO2	-0.3	-2.9
44	c1ccc(-c2nc(Sc3ncnc4c3cnn4-c3ccccc3)n[nH]2)cc1	-3.3	3.9
45	C[C@H](CO)N1C[C@H](C)[C@@H](CN(C)C)Oc2ccc(NC(=O)C3CCCCC3)cc2C1=O	0.6	-2.3
46	O=C(CSc1c2c(nc3cc(Cl)ccc13)CCCC2)N1CCCCCC1	·	0.3
47	C[C@H]1CN([C@@H](C)CO)C(=O)c2cc(NC(=O)NC3CCCCC3)ccc2O[C@@H]1CN(C)C(=O)Nc1ccc2c(c1)OCO2	-0.9	1.2
48	Fc1ccc(-n2nnc3c(SCc4ccc(C(F)(F)F)cc4)ncnc32)cc1	-1.3	6.1
49	CN(C/C=C/c1ccccc1)Cc1cccc2ccccc12	-0.9	-0.1
50	CCOC(=O)c1ccc(NC(=O)c2ccc(C(C)(C)C)cc2)cc1	0.2	2.8
51	O=C(Oc1ccccc1N(C(=O)c1ccccc1)S(=O)(=O)c1ccccc1)c1ccccc1	0.0	-3.0
52	C[C@@H]1CN([C@@H](C)CO)C(=O)c2cc(NS(=O)(=O)c3cccs3)ccc2O[C@H]1CN(C)Cc1ccc(C(=O)O)cc1	-0.3	-1.1
53	COc1nccc(C(F)(F)F)c1C(=O)NC(=O)Nc1c(C)cccc1C	0.5	-0.9
54	O=C(CCCC(=O)N1CCCc2ccccc21)N1CCCc2ccccc21	-0.6	-4.0
55	O=C(CC(c1ccccc1)c1ccccc1)NCc1ccccc1	-0.2	0.7
56	C[C@H]1CN([C@@H](C)CO)C(=O)c2cc(NC(=O)C3CCCCC3)ccc2O[C@@H]1CN(C)Cc1ccc(C(=O)O)cc1	0.2	-0.3
57	COC(=O)c1cccc(N=C2N=C(N)c3ccccc32)c1	0.6	-1.4
58	C[C@@H]1CN([C@H](C)CO)C(=O)c2cccc(NC(=O)c3ccc(-c4nccs4)cc3)c2O[C@H]1CN(C)S(=O)(=O)c1cccs1	·	-3.7
59	CN1C(c2ccccc2)=Nc2cccc3cccc1c23	-0.1	-1.1
60	C[C@@H]1CN([C@H](C)CO)C(=O)c2cccc(NC(=O)Nc3ccc(F)cc3)c2O[C@@H]1CN(C)CC1CCCCC1	·	-13
61	CN(c1ccc(Cl)cc1)S(=O)(=O)c1cccc(C(=O)Nc2ccccc2)c1	-0.8	-1.0
62	C[C@H](CO)N1C[C@H](C)[C@@H](CN(C)S(=O)(=O)c2ccc(Cl)cc2)Oc2ccc(NS(=O)(=O)c3ccc(Cl)cc3)cc2C1=O	-0.3	-1.7
63	Cn1nc(-c2ccc(S(=O)(=O)N3CCCN(C(=O)OC(C)(C)C)CC3)s2)cc1C(F)(F)F	0.0	2.2
64	CCc1ccc2oc(-c3ccccc3)cc(=NCc3cccnc3)c2c1	·	2.5
65	COc1ccc(S(=O)(=O)N(C)C[C@@H]2Oc3c(NS(C)(=O)=O)cccc3C(=O)N([C@@H](C)CO)C[C@@H]2C)cc1	·	4.2
66	Cc1cc(C(=O)Oc2c(C)cc(C(=O)O)c(O)c2C)c(O)c(C)c1O	0.7	-15
67	CCOC(=O)c1nnn2c3ccccc3c(=O)n(C)c12	-0.7	-3.2
68	COc1ccc(NC(=O)Nc2cccc3c2O[C@@H](CN(C)Cc2ccc(Oc4ccccc4)cc2)[C@@H](C)CN([C@@H](C)CO)C3=O)cc1	·	-2.2
69	C[C@@H]1CN([C@@H](C)CO)C(=O)c2cc(NC(=O)Nc3ccc(F)cc3)ccc2O[C@@H]1CN(C)S(C)(=O)=O	0.2	1.0
70	Cc1cc(N2CCCC2)nc2ccc(NC(=S)NC3CCCC3)cc12	·	9.5
71	COc1cccc2oc3c(c(=O)c12)C(C(=O)O)=CC(CO)=CO3	1.2	-7.0
72	COc1ccc(NC(=O)Nc2ccc3c(c2)C(=O)N([C@@H](C)CO)C[C@H](C)[C@H](CN(C)C(=O)Nc2ccccc2)O3)cc1	-0.6	-0.3
73	Cc1ccc(-n2nc(C(=O)NC(C)CCc3ccccc3)c3c4ccccc4n(C)c3c2=O)cc1 (stereo not drawn)	·	0.7
74	C[C@@H]1CN([C@H](C)CO)C(=O)c2cc(NC(=O)Cc3ccccc3)ccc2O[C@H]1CN(C)C(=O)Nc1ccc(C(F)(F)F)cc1	1.2	1.1
75	Cc1ccc(S(=O)(=O)N(C)C[C@@H]2Oc3c(NC(=O)Nc4ccccc4)cccc3C(=O)N([C@@H](C)CO)C[C@H]2C)cc1	·	-0.7
76	Cc1noc(C)c1S(=O)(=O)Nc1ccc2c(c1)C(=O)N([C@H](C)CO)C[C@@H](C)[C@H](CN(C)Cc1ccc(C(=O)Nc3ccccc3N)cc1)O2	·	1.4
77	CC1CC(=O)C2=C(CCC3(O)C2C(=O)c2cccc(O)c2C3O)C1 (stereo not drawn)	-0.3	-5.7
78	COc1cc(OC)cc(C(C)(C)OC(=O)NN)c1	0.8	0.4
79	C[C@@H]1CN([C@@H](C)CO)C(=O)c2cc(NS(=O)(=O)c3cccs3)ccc2O[C@@H]1CN(C)Cc1ccc(Oc2ccccc2)cc1	0.3	-6.2
80	O=C(CN1C(=O)CC(c2ccccc2)S(=O)(=O)c2ccccc21)NC1CCCCC1 (stereo not drawn)	0.4	0.5
81	C[C@H](CO)N1C[C@H](C)[C@@H](CN(C)Cc2ccc(C(F)(F)F)cc2)Oc2ccc(NS(=O)(=O)c3ccccc3)cc2C1=O	0.4	0.1
82	CC(/C=C/c1cccc(Oc2ccc(F)cc2)c1)N(O)C(N)=O (stereo not drawn)	-0.4	2.8
83	C[C@@H]1CN([C@H](C)CO)C(=O)c2cccc(NC(=O)C3CCCCC3)c2O[C@@H]1CN(C)S(=O)(=O)c1cn(C)cn1	·	0.7
84	C[C@@H]1CN([C@@H](C)CO)C(=O)c2cccc(NC(=O)Nc3ccccc3)c2O[C@H]1CN(C)S(=O)(=O)c1ccccc1	·	1.7
85	C[C@H]1CN([C@@H](C)CO)C(=O)c2cc(NC(=O)c3ccncc3)ccc2O[C@H]1CN(C)CC1CCCCC1	-0.3	0.4

Assay outcomes (PubChem BioAssay)

This is a subset, so the mix of outcomes need not match the whole.
